Vif TR-FRET: HIV-1 Vif–A3G interaction blockers – biochemical, TR-FRET, GST-Vif 1-94, biotin-A3G peptide, dose response retest, primary screen (AID 1117319); inhibition, %, or IC50 in µM where a hit was titrated; TR-FRET GST-Vif / biotin-A3G peptide binding; higher % means a stronger effect; test concentration not given here; strong numbers were not always called active; actives 0.57% (n = 260,000);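 active means above the screen mean plus three standard deviations and confirmed in dose response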;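 further: Vif residues 1-94 fused to GST binding biotinylated APOBEC3G peptide 110-148; 0% = full assay without inhibitor and 100% = GST in place of GST-Vif; retest series ran down from 100 µM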
Ecoli growth: inhibitors of Escherichia coli growth | OD600, 23 h; stronger effect = lower value | actives 0.21% (n = 330,000) | OD600 absorbance (test concentration not listed) | AID 1053175;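 active means OD600 absorbance below the run mean of sample wells minus 3.6 SD, in any replicate, cut at about 0.56 in these data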;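 further: stock transfer was 300 nL into about 60 µL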
FGF22 binding: binders of recombinant human FGF22 by thermal shift; Q9HCT0; SYPRO orange fluorescence; percent of sucrose octasulfate shift, DMSO zero; calls only at 9.99 µM; actives 1.5% (n = 340,000); AID 651658;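 active means melting point raised past a set limit in the mean and every replicate; three in four hits are not shown here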
ALR inh: human ALR oxidase inhibition via reduced H2O2 | purified ALR, DTT oxidation, H2O2 HRP-luminol luminescence | inhibition, % (no concentration beside the values) | actives 3.8% (n = 290,000);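 active means mean and each replicate at 75% or more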;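 further: stock transfer was 7.5 nL into about 7.5 µL; 0% = neutral wells and 100% = wells with inactivated enzyme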
HNF4A DNA FP: change in binding of human HNF4 alpha to DNA. actives 0.3% (n = 360,000). HNF4a-FITC DNA binding, fluorescence polarization, 1 h. AID 1224865. activity change, % at 10 µM. P41235; in the data active means activity change above about 30%, passing the limit was not always enough;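 further: controls were the assay level and a saturating level of protein; the project sought stronger binding though the title names inhibitors; some compounds called inactive have numbers as strong as hits; positive values seem to mean higher polarization but the record does not say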
Target sequence (P41235 whole entry, looked up): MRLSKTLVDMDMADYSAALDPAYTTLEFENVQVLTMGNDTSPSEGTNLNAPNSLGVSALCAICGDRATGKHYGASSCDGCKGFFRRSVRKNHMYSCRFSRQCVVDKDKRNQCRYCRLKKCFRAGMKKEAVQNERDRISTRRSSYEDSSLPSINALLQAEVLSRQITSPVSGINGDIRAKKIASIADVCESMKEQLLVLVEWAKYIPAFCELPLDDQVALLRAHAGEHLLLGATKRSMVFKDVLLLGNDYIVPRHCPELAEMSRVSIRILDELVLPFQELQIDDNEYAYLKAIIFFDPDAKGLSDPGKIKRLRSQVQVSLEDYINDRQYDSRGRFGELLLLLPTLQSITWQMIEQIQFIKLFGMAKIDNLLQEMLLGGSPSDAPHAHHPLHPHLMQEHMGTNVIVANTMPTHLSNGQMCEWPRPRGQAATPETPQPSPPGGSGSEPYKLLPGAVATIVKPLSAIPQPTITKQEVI
MLL AF4-AF9 inh: blocks AF4 peptide binding to human AF9; P42568; inhibition, % at 10 µM; AlphaScreen, biotin-AF4 peptide binding to FLAG-AF9; actives 0.47% (n = 350,000);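 active means every replicate reaching a set inhibition limit, whatever the replicate mean, cut at about 25% in these data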;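 further: 0% = plate neutral control median and 100% = total signal loss; the record names both 10 and 1 µM as test concentration; the first replicate is given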
Target sequence (P42568 whole entry, looked up): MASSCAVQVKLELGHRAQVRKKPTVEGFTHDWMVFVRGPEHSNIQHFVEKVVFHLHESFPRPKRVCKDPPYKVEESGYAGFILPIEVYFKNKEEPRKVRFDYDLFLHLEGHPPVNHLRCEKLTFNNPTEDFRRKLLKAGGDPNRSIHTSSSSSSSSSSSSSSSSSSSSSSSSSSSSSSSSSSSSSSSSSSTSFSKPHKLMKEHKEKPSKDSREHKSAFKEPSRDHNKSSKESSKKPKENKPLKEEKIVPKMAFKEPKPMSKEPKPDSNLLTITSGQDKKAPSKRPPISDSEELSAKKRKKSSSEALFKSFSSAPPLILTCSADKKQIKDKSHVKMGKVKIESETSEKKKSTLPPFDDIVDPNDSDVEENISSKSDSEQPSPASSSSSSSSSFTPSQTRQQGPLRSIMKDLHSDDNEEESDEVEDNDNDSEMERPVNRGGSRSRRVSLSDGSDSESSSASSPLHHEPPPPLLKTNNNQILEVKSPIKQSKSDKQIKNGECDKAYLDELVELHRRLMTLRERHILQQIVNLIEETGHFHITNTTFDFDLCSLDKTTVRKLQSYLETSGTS
rRNA inh HTS: inhibits bacterial ribosomal RNA function over humanized ribosomes. E. coli WT GFP vs humanized-ribosome RFP mutants, fluorescence, 24 h; stronger effect = lower value; DMSO median 0, no signal -100. GFP signal change (wild-type ribosome), % (test concentration not listed). actives 1.6% (n = 350,000);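 active means significant combined selectivity score with lowered wild-type GFP, culture density cut under 30%, mutant RFP and density less affected; inactive means any of these conditions unmet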; further: one replicate is shown; some compounds called inactive have numbers as strong as hits
rRNA inh HTS OD600: also measured in rRNA inh HTS; calls as there; OD600 change, %; measured here: OD600 growth;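 optical density of the mix in the first replicate; 0 = DMSO median and -100 = no signal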
rRNA inh HTS RFP: second read-out of rRNA inh HTS, no call of its own (marks repeat the call); RFP signal change, %; measured here: RFP humanized mutant strains;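 first replicate; 0 = DMSO median and -100 = no signal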
* = called active by the depositor; i = inactive; . = no result given; + = active, no number; & = joins results of further samples.

SMILES	Vif TR-FRET	Ecoli growth	FGF22 binding	ALR inh	HNF4A DNA FP	MLL AF4-AF9 inh	rRNA inh HTS	rRNA inh HTS OD600	rRNA inh HTS RFP
CC1(C)O[C@@H]2[C@H](O1)[C@@H](O)C[C@H]2n1cnc2c(Cl)ncnc21	.	.	i	.	.	-1.5	10	0	6.8
Cc1cc(C(=O)N(C)C)sc1-c1ccccc1	-5%	0.72	.	-1	-2.5	.	.	.	.
Cc1ocnc1C(=O)Nc1ccc(Cl)cc1	1%	0.61	.	-6	1.9	.	.	.	.
CCOc1ccc(S(=O)(=O)NCCC(=O)NCC2COc3ccccc3O2)cc1 (centres undefined)	-1%	0.68	i	6	3.9	-1.1	-8	-4	2.8
COc1ccc2oc(C(=O)NNC(=O)c3ccc(F)cc3)c(C)c2c1	-1%	0.69	i	.	-0.6	-1.0	-12	-4	2.4
Cn1c(=O)oc2cc(S(=O)(=O)NCCN3CCc4ccccc4C3)ccc21	22%	0.74	i	-7	-2.9	3.6	3	1	-2.0
CNC(=O)C[C@H]1CC[C@@H]2[C@H](COc3ccc(NC(=O)Nc4ccc(F)cc4)cc3C(=O)N2C)O1	.	.	i	.	.	1.7	1	-5	-2.9
C/C=C/c1ccc([C@@H]2[C@H]3CN(S(=O)(=O)c4ccccc4)CCCCN3[C@H]2CO)cc1	.	.	i	.	.	-4.4	-2	-40	18
O=C(COc1ccc(Cl)cc1Cl)NN1C(=O)C2C3C=CC([C@@H]2C1=O)C31CC1 (some centres undefined)	.	0.65	i	5	6.0	.	6	3	-1.3
CCN1CCN(S(=O)(=O)c2cc(C(=O)O)ccc2Cl)CC1	.	0.73	i	0	1.1	-26	19	10	-2.0
Cc1ccc(C2=NN(CCC(=O)NCCCN3CCOCC3)C(=O)CC2)cc1	-2%	0.66	i	-20	-0.3	2.8	4	9	1.9
COC(=O)c1ccccc1NS(=O)(=O)c1cn(C)c(=O)n(C)c1=O	-2%	0.64	i	-15	0.7	8.1	8	9	-7.1
C=CCn1c(CNC(=O)CCC)nc2ccccc21	.	0.69	.	-5	-2.0	.	.	.	.
CCC(=O)Nc1ccc2c(c1)OC[C@@H](C)N(C(=O)Cc1ccccn1)C[C@H](C)[C@@H](OC)CN(C)C2=O	.	.	i	.	.	-1.9	2	7	-0.2
CCc1csc(N2[C@H](C#N)[C@H](c3ccccc3-c3ccc(F)cc3)[C@H]2CO)n1	.	.	i	.	.	3.3	-17	-58	-6.2
CC(=O)Nc1ccc(NC(=O)CSc2nnc(-c3cccnc3)o2)cc1	-6%	0.69	i	98*	-4.1	-2.2	9	4	-2.3
O=C(Nc1cc(Cl)ccc1-n1cncn1)c1cc(S(=O)(=O)N2CCOCC2)ccc1F	.	0.7	i	1	-5.7	-5.7	-7	-4	-2.3
COc1ccc(C(=O)NCCNc2ncc(C(F)(F)F)cc2Cl)cc1[N+](=O)[O-]	.	0.72	i	-1	3.8	-0.6	-8	0	1.7
COc1ccc(CN2[C@@H](CC(=O)O)c3ccc(C(F)(F)F)cc3S2(=O)=O)cc1	.	.	i	-3	.	1.9	6	13	5.5
COc1ccccc1-c1cnc2c(c1)C(=O)N([C@@H](C)CO)C[C@H](C)[C@H](CN(C)C(C)=O)O2	.	.	i	.	.	-4.1	4	-3	0.0
CCN(CC)c1nc(N2CCN(C)CC2)nc2ccccc12	0%	0.64	i	-4	4.6	-4.3	20	13	5.4
S=C(NCCNC(=S)Nc1ccccc1Cl)Nc1ccccc1Cl	2%	0.67	i	1	0.7	2.9	-28	-23	-6.0
COC(=O)C(C)NC(=O)c1ccc(C(C)(C)C)cc1 (centres undefined)	-7%	0.67	.	-5	-1.0	.	.	.	.
Cc1nnc(NC(=O)CN2CCN(Cc3ccc(F)cc3Cl)CC2)s1	.	0.68	i	1	0.3	-0.7	1	6	0.8

Some of the entries above in a different format.
COc1ccccc1-c1cnc2c(c1)C(=O)N([C@@H](C)CO)C[C@H](C)[C@H](CN(C)C(C)=O)O2
  Vif TR-FRET: .
  Ecoli growth: .
  FGF22 binding: i
  ALR inh: .
  HNF4A DNA FP: .
  MLL AF4-AF9 inh: -4.1
  rRNA inh HTS: 4
  rRNA inh HTS OD600: -3
  rRNA inh HTS RFP: 0.0
CCN(CC)c1nc(N2CCN(C)CC2)nc2ccccc12
  Vif TR-FRET: 0%
  Ecoli growth: 0.64
  FGF22 binding: i
  ALR inh: -4
  HNF4A DNA FP: 4.6
  MLL AF4-AF9 inh: -4.3
  rRNA inh HTS: 20
  rRNA inh HTS OD600: 13
  rRNA inh HTS RFP: 5.4
S=C(NCCNC(=S)Nc1ccccc1Cl)Nc1ccccc1Cl
  Vif TR-FRET: 2%
  Ecoli growth: 0.67
  FGF22 binding: i
  ALR inh: 1
  HNF4A DNA FP: 0.7
  MLL AF4-AF9 inh: 2.9
  rRNA inh HTS: -28
  rRNA inh HTS OD600: -23
  rRNA inh HTS RFP: -6.0

The listing continues.
SMILES	Vif TR-FRET	Ecoli growth	FGF22 binding	ALR inh	HNF4A DNA FP	MLL AF4-AF9 inh	rRNA inh HTS	rRNA inh HTS OD600	rRNA inh HTS RFP
O=C(Nc1cc(C(F)(F)F)ccc1N1CCCC1)C1CC(=O)N(Cc2ccccc2)C1 (centres undefined)	-1%	.	i	.	1.3	-3.7	6	0	0.2
COc1ccc(NC(=O)Nc2ccc3c(c2)C(=O)N([C@@H](C)CO)C[C@H](C)[C@H](CN(C)CC2CCCCC2)O3)cc1	.	.	i	.	.	-0.4	3	6	-1.3
COc1ccccc1C(=O)C1CCCN(C(=O)c2cn3cc(Cl)ccc3n2)C1 (centres undefined)	2%	.	i	-4	-6.4	-0.7	.	.	.
CC(=O)c1ccc(NC(=O)COC(=O)C2C3CC4OC(=O)C2C4C3)cc1 (centres undefined)	.	0.63	i	0	0.6	0.9	-1	-1	-3.3
Cc1ccc([N+](=O)[O-])cc1N1C(=O)CS/C1=N\NC(=O)c1cccnc1	9%	.	i	-5	-0.6	6.6	20	10	5.2
O=C(CCCOc1ccccc1)NCCc1ccccc1	1%	0.67	i	-11	1.6	-1.1	0	-6	0.5
CCCCCCCC1c2c(c(C)c(C)oc2=O)Oc2c(C)c(C)oc(=O)c21	.	0.81	i	-9	-3.7	.	-2	3	1.3
CCN1CCN(C(c2cccs2)C(C)NC(=O)c2ccccc2F)CC1 (centres undefined)	-2%	0.63	i	-9	0.2	1.1	12	13	-10
O=C(OCC(=O)N1CCCC1=O)c1ccc(Cl)cc1[N+](=O)[O-]	4%	0.57	i	-46	-0.1	-18	9	6	-0.2
OCCCNC(c1ccccc1)c1ccc(O)cc1 (centres undefined)	33%	0.74	.	7	3.8	.	.	.	.
Cc1ccc(CNc2ccc(N3CCOCC3)c(Cl)c2)cc1	.	0.67	i	35	2.4	-0.8	-9	-4	-1.8
CCCC(c1nnnn1Cc1ccc(OC)cc1)N1CCC(C(N)=O)CC1 (centres undefined)	4%	0.81	.	-1	0.3	.	.	.	.
O=C(Nc1cccc(Oc2ccc3c(c2)C(=O)NC3=O)c1)c1ccco1	4%	0.67	.	2	-3.5	.	.	.	.
C[C@@H]1CCCCO[C@@H](CN(C)S(=O)(=O)c2ccc(F)cc2)[C@@H](C)CN([C@H](C)CO)C(=O)c2cc(NC(=O)CCCN(C)C)ccc2O1	.	.	i	.	.	3.9	0	1	-1.2
O=C(Cc1ccc(NC2=NC3CS(=O)(=O)CC3S2)cc1)NCc1ccccc1 (centres undefined)	.	0.7	i	-4	-1.8	-1.8	7	16	0.1
COCCNC(=O)c1ccccc1NC(=O)c1ccccc1N(C)S(C)(=O)=O	-7%	0.71	.	-1	-2.5	.	.	.	.
COc1cccc(OCC(O)CN2CCc3ccccc3C2)c1 (centres undefined)	.	0.62	i	-1	3.6	0.2	3	4	-1.2
Cc1ccc(S(=O)(=O)NC(=O)Nc2ccc(F)cc2)cc1	0%	0.67	.	-12	-2.2	.	.	.	.
COc1ccc(C(CC(=O)N2CCCCC2)C(C)C)cc1 (centres undefined)	-1%	0.66	i	.	6.0	-1.8	.	.	.
c1ccc(-c2cc3nc(NCc4cccs4)ccn3n2)cc1	.	.	i	.	0.0	-1.0	-56	-74	-16
Cc1cc2c(c(=O)o1)[C@@]1(C(=O)N(C)c3ccc([N+](=O)[O-])cc31)C1=C(CCCC1=O)O2	.	.	.	.	.	-3.3	-5	-3	-1.8
C[C@@H]1CN([C@@H](C)CO)C(=O)c2cc(NS(=O)(=O)c3cccs3)ccc2O[C@@H]1CN(C)Cc1ccc2c(c1)OCO2	.	.	i	.	.	-1.4	1	-3	-1.8
COc1ccc(S(=O)(=O)N(C)C[C@H]2Oc3ccc(NC(=O)C4CC4)cc3CC(=O)N([C@@H](C)CO)C[C@H]2C)cc1	.	.	i	.	.	-8.3	0	-4	-1.2
CC(=O)Nc1ccc(NC(=O)Cn2ccc([N+](=O)[O-])n2)cc1	12%	0.65	i	-8	-0.1	2.3	4	-1	-2.5
CN1CCN(CC#CC(C)(O)C2CC3C=CC2C3)CC1 (centres undefined)	17%	0.71	.	2	-1.4	.	.	.	.
CCc1cc2c(=O)c(-c3ccc4c(c3)OCO4)coc2c(CN(C)C)c1O	-2%	0.7	i	-2	1.6	-2.3	6	13	0.7
O=C1CCCc2c1nc(-c1ccco1)n2O	30%	0.72	.	-1	-3.9	.	.	.	.
Cc1[nH]c(=S)n(CC2CCCO2)c1C (centres undefined)	-6%	0.71	.	.	-0.7	.	.	.	.
C/C=C/c1ccc([C@H]2[C@@H](CNS(C)(=O)=O)N(CC3CCCC3)[C@H]2CO)cc1	.	.	i	.	.	-9.5	0	-4	2.8
O=c1c2ccccc2c(=O)n2n1Cc1ccccc1C2	.	0.7	i	1	-2.3	0.4	-6	-6	-4.8
O=c1/c(=C\c2ccc(O)cc2)sc2nc(-c3ccccc3)c(-c3ccccc3)n12	1%	.	i	1	52*	-4.2	1	11	-1.3
Cn1c(CNC(=O)CNS(=O)(=O)c2ccc(F)cc2F)cc(=O)n(C)c1=O	.	0.68	i	-1	0.7	1.6	9	3	-0.3
COc1ccc(C(=O)OCC2CC(c3ccccc3)=NO2)cc1OC (centres undefined)	2%	0.69	i	.	-0.8	-5.9	.	.	.
COc1ccc(C(=O)CC(=O)C(=O)Nc2cc(OC)ccc2OC)cc1	.	0.7	i	-55	2.0	1.7	13	13	-0.7
O=C(Cc1ccc(NC2=NC3CS(=O)(=O)CC3S2)cc1)NCc1ccccc1Cl (centres undefined)	.	0.78	i	-1	-2.9	-1.3	0	-5	1.8
Cc1[nH]c2ccccc2c1/C=N/Nc1ccccc1[N+](=O)[O-]	3%	.	+	13	-1.8	50*	-20*	-2.6*	-5.4*
CC(C)C(NC(=O)c1ccc(C(C)(C)C)cc1)C(=O)NC1=NCCS1 (centres undefined)	21%	0.67	.	-2	-2.1	.	.	.	.
CN(NC(=O)c1ccccc1F)c1ncccc1[N+](=O)[O-]	-7%	0.65	i	-8	1.9	.	16	6	0.8
CCOC(=O)N1CCc2c(sc3ncn(Cc4ccc(F)cc4)c(=O)c23)C1	-8%	0.65	i	1	0.3	-1.9	.	.	.
CN1CCN(C(=O)C[C@@H]2C=C[C@@H](NS(=O)(=O)c3cccc(F)c3)[C@H](CO)O2)CC1	.	.	i	.	.	-1.5	4	11	-0.2
O=C(c1ccccc1)N1CCN(CCc2ccccn2)CC1	.	0.7	i	8	3.9	-0.3	12	17	5.6
O=C(NCCN1CCCC1)c1ccccc1Cl	.	0.72	.	-3	-0.1	2.2	.	.	.
Cc1cccc(C)c1OCCn1nc(C(=O)O)c2ccccc2c1=O	9%	0.76	.	4	4.2	.	.	.	.
C[C@H](CO)N1C[C@H](C)[C@@H](CN(C)C(=O)Nc2ccccc2)OCc2cnnn2CCCC1=O	.	.	i	.	.	-0.5&5.1	-4	-3	-1.0
C[C@H]1CN([C@@H](C)CO)C(=O)c2cc(NS(=O)(=O)c3ccc(F)cc3)ccc2O[C@H]1CN(C)Cc1ccc(Oc2ccccc2)cc1	.	.	i	.	.	3.5	-1	-21	4.9

Source: PubChem

An excerpt (hit frequency here may not be typical).
